High-throughput results as filed in PubChem BioAssay.
NPR1 antag: antagonists of human natriuretic peptide receptor Npr1; HEK293 hNpr1 GloSensor cGMP, ANP-stimulated luminescence; 76,000 tested, 1.6% active; Potency, µM (top dose mostly 46.3 µM), for inactives: at the top dose activity change, negative = inhibition, most hits filed as inhibitors; AID 1347048; P16066; active = well fitted inhibition curve with a large enough effect; inconclusive = small, poorly fitted or top-dose-only effect; inactive = no such curve, though single readings can be large or run the other way;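 note: nearly all actives have a fitted effect of over 60% in size; nearly all hits also lower the signal before the agonist is added; a reference antagonist and vehicle were the controls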
Target sequence (P16066 whole entry, looked up): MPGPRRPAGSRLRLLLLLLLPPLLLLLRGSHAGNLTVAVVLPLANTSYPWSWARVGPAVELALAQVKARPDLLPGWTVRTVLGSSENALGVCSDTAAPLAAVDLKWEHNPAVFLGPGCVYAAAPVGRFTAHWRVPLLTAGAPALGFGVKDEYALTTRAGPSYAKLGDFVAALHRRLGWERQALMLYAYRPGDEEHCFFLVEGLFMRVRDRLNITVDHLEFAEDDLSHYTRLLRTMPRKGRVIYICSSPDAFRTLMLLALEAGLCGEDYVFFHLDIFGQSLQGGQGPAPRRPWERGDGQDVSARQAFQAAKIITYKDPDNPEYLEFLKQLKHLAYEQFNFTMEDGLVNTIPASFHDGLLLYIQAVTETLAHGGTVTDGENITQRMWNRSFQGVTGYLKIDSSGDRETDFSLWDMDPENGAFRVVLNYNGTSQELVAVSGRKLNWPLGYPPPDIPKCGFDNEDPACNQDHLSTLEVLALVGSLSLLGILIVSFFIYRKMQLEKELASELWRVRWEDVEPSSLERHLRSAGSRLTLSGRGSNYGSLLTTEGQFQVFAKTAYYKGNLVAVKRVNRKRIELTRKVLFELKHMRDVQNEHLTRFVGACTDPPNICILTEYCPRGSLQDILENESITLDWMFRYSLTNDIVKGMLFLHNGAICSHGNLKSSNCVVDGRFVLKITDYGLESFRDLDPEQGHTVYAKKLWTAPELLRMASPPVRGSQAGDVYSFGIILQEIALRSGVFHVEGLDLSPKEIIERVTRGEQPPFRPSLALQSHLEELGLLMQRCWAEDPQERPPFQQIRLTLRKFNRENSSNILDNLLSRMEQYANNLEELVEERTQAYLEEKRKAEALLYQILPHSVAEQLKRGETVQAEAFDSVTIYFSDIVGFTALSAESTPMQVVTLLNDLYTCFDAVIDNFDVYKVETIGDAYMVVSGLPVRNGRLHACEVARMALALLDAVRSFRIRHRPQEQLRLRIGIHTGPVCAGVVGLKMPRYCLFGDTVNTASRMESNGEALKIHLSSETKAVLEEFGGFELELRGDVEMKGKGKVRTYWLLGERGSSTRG
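Compound pre-incubated 30 min at room temperature on GloSensor-loaded HEK293 cells stably carrying hNpr1 and the pGS-40F cGMP biosensor. Stimulation uses hNppA at 0.1 nM final; luminescence is taken at baseline and 20 min post-agonist.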
* = called active by the depositor; ? = inconclusive; [ ] = dose if it differs, or a comment. % is set by controls: 0 for no effect and ±100 for the full control effect; potency is the fitted concentration of half-maximal effect. Some of the compounds tested. The share of hits here may be higher or lower than overall.

structure | NPR1 antag
CC(=O)Nc1ccc(CN2CCn3c(nnc3C3CCNCC3)C2)cc1 | -15.8%[70.6 µM]
CN1CCCCCC(O)c2cc(C(=O)NCc3ccccn3)ccc21 (centres undefined) | -1.6%
O=C(NCCCn1ccnc1)c1cnc2c(c1)N(C(=O)CCc1ccccc1)CCC2 | 2.8%[70.6 µM]
CN(C)C[C@@H]1CN(c2ccccn2)C[C@H]1NC(=O)c1ccc2c(c1)OCO2 | 6.0%
CCNC(=O)NCC1Cn2cccc2CN1C (centres undefined) | -3.7%
Cc1cc(C)c(CNC(=O)c2nc(-c3cccc(C(F)(F)F)c3)cc3[nH]ccc23)c(=O)[nH]1 | -15.8%
O=C1CCC(C(=O)N[C@@H]2COCC[C@@H]2OCc2cscn2)=NN1 | 18.1%
COc1nccnc1NC1CCN(S(=O)(=O)c2ccccc2)CC1 | 0.1%
Cc1cc(C)c(CNC(=O)c2nc(-c3ccc(CN(C)C)cc3)cc3c2ccn3C(C)C)c(=O)[nH]1 | -2.3%
O=C(c1ccc2nccn2c1)N1CCC(c2ccccc2F)C1 (centres undefined) | -0.4%
O=C(c1ccc(F)cc1)N1C[C@@H](CO)[C@H](c2nc(C3CC3)no2)C1 | 1.4%
CNS(=O)(=O)c1ccc(CCC(=O)N2Cc3nnc(C)n3C(C)C2)cc1 (centres undefined) | -0.1%
Cc1cc(C[C@@H]2COC[C@@H]2NC(=O)CCc2ccc(=O)[nH]n2)on1 | 0.2%
COCC1CN(C2CCC2)CC12CCN(Cc1scnc1C)CC2 (centres undefined) | 1.4%
COc1ccccc1Cn1cnc2cccnc21 | 0.0%[70.6 µM]
COc1ccc(C(=O)N2CCC3(C2)NC(=O)c2ccccc2O3)cc1 (centres undefined) | 0.0%
CCC(C(=O)N1CCC2(CCC(=O)N(Cc3ccccn3)C2)CC1)n1cccn1 (centres undefined) | 0.2%
COCCCn1c(C)cnc1C1CCN(Cc2ccc(F)cc2F)C1 (centres undefined) | 1.6%
COCCN1C(=O)CC[C@]2(C(=O)NCc3ccccc3OC)CCCC[C@@H]12 | 2.1%
CC1=C[C@@H](CNC(=O)C2CCC2)[C@H](C(C)C)C[C@H]1Cc1nc2ccc(F)cc2[nH]1 | ?
COc1ccccc1CCC(=O)N[C@@H]1CN(c2ncccn2)C[C@H]1CO | 6.5%
Cc1ccc(C(=O)N2CCCC2c2nncn2Cc2ccncc2)c(=O)[nH]1 (centres undefined) | -15.4%
O=C(NCC1CCOCC1)C1c2ccccc2C(=O)N(Cc2ccccc2)C12CCCC2 (centres undefined) | 0.5%
Cc1cc(C(=O)NCCc2noc(-c3ccccc3)n2)nn1C | -8.2%
O=C(Cn1ccn2nc(-c3ccc(F)cc3)c(CO)c2c1=O)NCc1ccccc1Br | -0.3%
CC(C)CN1CCC(O)(c2csc(CN3CCN(c4ccccn4)CC3)n2)CC1 | 2.4%[70.6 µM]
COc1ccccc1NC(=O)N1C[C@@H](F)C[C@H]1C(=O)N1CCc2ccccc2C1 | -14.6%
CN1CCN(c2ccc3ncc(Nc4ccc(OC(F)(F)F)cc4)n3n2)CC1 | -20.1%[70.6 µM]
CC1CCN(CC2CCCCCN2C(=O)Nc2ccc3c(c2)OCCO3)CC1 (centres undefined) | -12.5%
O=C(N1CC=C(c2ccc(F)cc2)CC1)C12CNCC1CNC2 (centres undefined) | 4.9%
COCCN1CCC(N2CCN(S(=O)(=O)c3ccc(C)cc3C)CC2)C1=O (centres undefined) | 4.3%
O=C(N[C@@H]1CN(C(=O)NC2CCCCC2)CCC[C@H]1O)c1ccc(OCc2ccccc2)cc1 | 5.1%
Cc1cccc([C@H]2C[C@@H](O)[C@@H](O)[C@@H]2NS(=O)(=O)c2ccccc2)c1 | 5.6%[70.6 µM]
Cn1ccc(C(=O)N[C@@H]2COCC[C@@H]2OCc2cscn2)cc1=O | 12.8%
CC(C)(C)c1cc(C[C@@H]2C[C@H](NCc3ccccn3)C2(C)C)no1 | ?
COc1cc(-c2nc(-c3c(C)noc3C)cc3c2cc(C)n3CCN(C)C)ccn1 | 2.8%[70.6 µM]
COc1ccc(CNC(=O)CC[C@@H]2CNC(=O)[C@@H]3C[C@H](NCc4ccccn4)CN23)cc1 | 3.5%
CCC(=O)N(C1CCOCC1)C1CCN(Cc2cccnc2)CC1 | 1.5%
COc1ccc(CC(=O)N2CCC(c3n[nH]c(=O)n3-c3ccc(C)cc3)CC2)cc1 | 0.0%
CC(=O)N1CCCN(c2ccc(-c3nc(-c4ccccc4F)no3)cn2)CC1 | -3.1%
COc1cncc([C@@H](NC(=O)CCc2c(C)noc2C)C2CC(O)C2)c1 (some centres undefined) | -0.3%
CN(CC[C@H]1CN(C(=O)c2ccc(C(F)(F)F)cc2)CC[C@H]1CC(=O)O)c1ccccc1 | 3.3%
CNC(=O)[C@@H]1C[C@@H](O)CN1C1CCN(C(=O)c2ccc(Cc3c(C)noc3C)o2)CC1 | -2.7%
COc1ccc(C(=O)N[C@H]2CC[C@]3(C)CCC([C@H](C)C(=O)NCc4ccccc4OC)[C@H](O)[C@H]3[C@@H]2C)cc1 (some centres undefined) | -7.5%
O=C(O)C[C@@H]1CCN(C(=O)C2CCC2)C[C@@H]1CCN1CCN(c2ccccn2)CC1 | 4.1%[70.6 µM]
CC(C)c1nc2ccccc2n1CCNC(=O)Cn1nc2c(cc1=O)CCCCC2 | 4.9%
Cc1nc(C2CC2)ncc1C(=O)N1CCC2(CC1)OCCCC2O (centres undefined) | 8.1%
Cc1nc(-c2ccccc2)n(CC(=O)Nc2ccc(Cl)cc2)c(=O)c1CCO | -17.6%
COCC1CCN(C(=O)c2ccc(C)cc2F)C1 (centres undefined) | 7.1%
CCc1noc(-c2ccn3c(CNC(=O)COc4cccc(C)c4)nnc3c2)n1 | 11.8%
COCCn1nc2n(c1=O)CCN(C(=O)c1cc(F)ccc1F)CC2 | 1.1%
N#Cc1cccc(-c2cn3c(n2)N(C(=O)c2cccc(F)c2)CCC3)c1 | -17.3%
COc1ccc(OCc2nc3c(n2Cc2ccccc2)C(=O)N(Cc2ccccc2C#N)CCN3)cc1OC | 2.8%
O=C1NC2(CN(Cc3ccc(F)cc3)C2)Oc2ccccc21 | 0.0%[70.6 µM]
COCCNC(=O)[C@H]1C[C@H](Oc2cccnc2)CN1C(=O)Cc1cccc(OC)c1 | 0.8%
COc1ccc(CCC(=O)N2CCC[C@H]2c2nc(-c3ccc(OC)c(OC)c3)no2)cc1 | 6.6%
COC[C@@H]1CN(C(=O)c2occc2C)C[C@H]1c1ccccn1 | 0.0%
COCC(=O)N1CCN(C(=O)c2cccc(F)c2)C[C@H]1C(=O)N[C@H](C)C(=O)OC | -1.3%[70.6 µM]
COc1ccccc1N1CCN(C(=O)CCc2ccccc2C)CC1=O | 7.6%
CCNc1nccc(N2CCC(CC(=O)NCCCOC)CC2)n1 | -2.0%

Quoted at random: 2 compounds from above, in no set order.
structure | NPR1 antag
N#Cc1cccc(-c2cn3c(n2)N(C(=O)c2cccc(F)c2)CCC3)c1 | -17.3%
O=C(N[C@@H]1CN(C(=O)NC2CCCCC2)CCC[C@H]1O)c1ccc(OCc2ccccc2)cc1 | 5.1%

(list continues)
structure | NPR1 antag
O=C1NCCCCCCN(C(=O)C2CCCCC2)[C@H]2CCCC[C@@H]12 | -6.6%
CC1=C[C@@H](CNC(=O)COc2ccccc2)[C@H](C(C)C)C[C@H]1Cc1nc2ccncc2[nH]1 | ?
Cc1ccc(C(C(=O)NCc2c(C)n[nH]c2C)N(C)C)cc1 (centres undefined) | 0.8%
CCNC(=O)CN1CCN(C(=O)[C@@H](N)Cc2cnc[nH]2)CC1 | ?
COCCn1cc2c3c(cccc31)CN(C(=O)c1cc(F)ccc1Cl)CC2 | -14.4%
O=C(Nc1cccc(-c2nnc3n2CCCC3)c1)c1ccc(Cl)cc1 | -19.6%
O=C(NCCc1ccc(Cl)cc1Cl)C1CNCCO1 (centres undefined) | -3.8%
COc1ccc(-n2nc(C3CCN(C(=O)C(C)(C)C)CC3)[nH]c2=O)cc1 | 4.1%
COc1ccc(C(=O)N2C[C@@H]3OCC(=O)N(CC4CCCCC4)[C@@H]3C2)cc1 | -11.7%[70.6 µM]
CC(C)c1nc2c(c(-c3ccc(O)cc3)n1)CCN(Cc1ccccc1C(F)(F)F)CC2 | ?
Cc1ccc(C(O)Cn2ccn3nc(-c4ccc(F)cc4)cc3c2=O)cc1C (centres undefined) | -9.7%
Cc1noc(C)c1-c1cc2cc(CN(C)C)oc2c(N2CCN(c3ccccn3)CC2)n1 | -1.9%[70.6 µM]
Cc1ccc2c(c1)N1C(=O)OC[C@@H]1CCN(C(=O)c1ccc(C(F)(F)F)cc1)C2 | -17.7%[70.6 µM]
COc1ccc(N2CCN(C(=O)c3ccc(N4CC5CC(C4)[C@H]4CCCC(=O)N4C5)nc3)CC2)cc1 (some centres undefined) | -0.9%
COc1cccc2ccc(N3CCN(Cc4ccccc4)CC(O)C3)nc12 (centres undefined) | 1.3%
O=C(Cc1cccc(F)c1)N1CCC2(CC1)NC(=O)N(c1cccc(F)c1)N2 | 5.5%
Cc1nc2n(c1C(=O)N(C)C)CCN(C(=O)c1cc(=O)n(C)c(=O)n1C)C2 | 1.9%
O=S(=O)(NC1CCCN(c2nc3ccccc3s2)C1)N1CCCC1 (centres undefined) | -4.0%
O=C(NC1CCCC1)C1CCc2nc(N3CCN(C(=O)C4CCC4)CC3)sc2C1 (centres undefined) | -12.1%
CC(C)CC(=O)N1CCC(c2noc(-c3cnccn3)n2)C1 (centres undefined) | 4.5%
O=C(C1CC(=O)N(C2CC2)C1)N1CCC(Oc2cccc(Cl)c2)CC1 (centres undefined) | 3.6%
O=C(O)CO[C@@H]1COCC[C@H]1NC(=O)C1(CO)CC1 | -7.6%
Cc1noc(-c2ccc3c(c2)OCO3)c1C(=O)N1CCC(Cc2ccc(F)cc2)CC1 | ?
O=C(c1ccoc1)N1CCCn2cc(-c3ccccc3)nc21 | -16.9%
CC(=O)N1CCC(Cc2ccc(C(=O)NCc3cn[nH]c3C)cc2)CC1 | 4.0%
CN1CCc2c([nH]c3ccccc23)C12CCN(C(=O)c1cc(CN3CCOCC3)on1)CC2 | -1.8%
O[C@@H]1C[C@@H](c2nc(-c3ccc(F)cc3)no2)N(Cc2ccncc2)C1 | ?
COc1ccc(CN2CCN(CC(N)=O)CC2CCO)c(F)c1 (centres undefined) | 5.6%
Cc1cc(C(=O)N[C@H](C)c2onc(C)c2C(=O)O)c(C)o1 | -0.6%[70.6 µM]
Cn1nc(C2CCN(S(=O)(=O)c3cccs3)CC2)n(CCc2ccccc2)c1=O | -11.7%

Overlap with the part before: 6 entries, followed by the next part.
SMILES | NPR1 antag
CC(=O)N1CCC(Cc2ccc(C(=O)NCc3cn[nH]c3C)cc2)CC1 | 4.0%
CN1CCc2c([nH]c3ccccc23)C12CCN(C(=O)c1cc(CN3CCOCC3)on1)CC2 | -1.8%
O[C@@H]1C[C@@H](c2nc(-c3ccc(F)cc3)no2)N(Cc2ccncc2)C1 | ?
COc1ccc(CN2CCN(CC(N)=O)CC2CCO)c(F)c1 (centres undefined) | 5.6%
Cc1cc(C(=O)N[C@H](C)c2onc(C)c2C(=O)O)c(C)o1 | -0.6%[70.6 µM]
Cn1nc(C2CCN(S(=O)(=O)c3cccs3)CC2)n(CCc2ccccc2)c1=O | -11.7%
CS(=O)(=O)c1ccc(CC(=O)N2CCc3nn(CC#N)c(=O)n3CC2)cc1 | 3.4%
Cc1nc2c(c(-c3ccc(Cl)cc3)n1)CCN(C(=O)c1ccc(F)cc1)CC2 | -1.0%
CN[C@@H](CC(C)C)C(=O)N[C@@H]1C=C(C(=O)N[C@H]2CCCNC2=O)C[C@@H](O)[C@@H]1O | -0.9%[70.6 µM]
COc1cc(C(=O)N2CCCC2c2nonc2C)ccc1OC1CCN(C(C)=O)CC1 (centres undefined) | 2.1%
CCC(NS(=O)(=O)c1ccc(C(=O)NC2CC2)cc1)c1cnn(C)c1 (centres undefined) | -0.9%
Cn1ncc(N2CCCC(C(=O)NCCCc3ccccc3)C2)cc1=O (centres undefined) | -10.5%
C[S+](=O)([O-])N1CCCC(c2nn(-c3ccccc3)c(=O)[nH]2)C1 (centres undefined) | 9.8%[70.6 µM]
CCc1ccc(C(=O)N2CC(c3nnc(C(C)C)o3)C3(CCOCC3)C2)cc1 (centres undefined) | -0.6%
CCCC1c2nccn2CCCN1C(=O)c1noc(C)c1COC (centres undefined) | 0.1%
COc1ccc(C2(C(=O)N3CCCC(Cc4nc(C5CCOCC5)no4)C3)CC2)cc1 (centres undefined) | -20.3%
O=C(NC1CCN(c2cc(-c3ccc(F)cc3)[nH]n2)C1)c1cccc(F)c1 (centres undefined) | -14.7%
COc1ccc(C2=NOC3(CCN([S+](=O)([O-])c4c(C)noc4C)C3)C2)cc1 (centres undefined) | 13.6%
COc1cccc(CNC(=O)N2CCCC3(C2)Nc2cccnc2NC3=NC2CCCC2)c1 (centres undefined) | -8.0%
CCN1CCCN(S(=O)(=O)c2cnn(CC)c2)CC12CCOCC2 | -7.9%
C=CCNC(=O)CCc1c(C)nn(-c2ccccc2C)c1Oc1ccccc1 | -0.4%
CCOc1ccccc1NC(=O)CN1C(=O)NC2(CCCCC2)C1=O | 9.6%
O=C(NCCc1cnn(-c2ccccc2)c1)C1NCCc2[nH]cnc21 (centres undefined) | 4.1%
C#CCN(C)CC[C@@H]1CC[C@H](O)[C@@H](C(=O)NC2CCCCC2)O1 | -1.6%[70.6 µM]
COc1ccc(-n2nc(C)c([C@H]3C=C[C@@H](OC(=O)Nc4ccc(Br)cc4)C3)c2C)cc1 | 11.2µM*
